Source: PubChem
KCNQ2 pot: potentiators of rat KCNQ2 potassium channel; hit rate 0.54% among 310,000; Potassium voltage-gated channel subfamily KQT member 2 (Rattus norvegicus), O88943; B-score at 10 µM; CHO-K1 KCNQ2, FluxOR thallium flux fluorescence; hits give high values;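 active means fluorescence ratio B-score at least 3 SD of library B-scores, with initial fluorescence B-score within 3 SD, cut at about 5.3 in these data; same plate scores as AID 2156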;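 further: B-score of peak minus minimum over baseline fluorescence ratio after K+ and Tl+ stimulus; positive B-score means potentiation of KCNQ2 with more thallium influx and brighter signal; only the inactives scoring about 0 or higher are listed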
Target sequence (O88943 whole entry, looked up): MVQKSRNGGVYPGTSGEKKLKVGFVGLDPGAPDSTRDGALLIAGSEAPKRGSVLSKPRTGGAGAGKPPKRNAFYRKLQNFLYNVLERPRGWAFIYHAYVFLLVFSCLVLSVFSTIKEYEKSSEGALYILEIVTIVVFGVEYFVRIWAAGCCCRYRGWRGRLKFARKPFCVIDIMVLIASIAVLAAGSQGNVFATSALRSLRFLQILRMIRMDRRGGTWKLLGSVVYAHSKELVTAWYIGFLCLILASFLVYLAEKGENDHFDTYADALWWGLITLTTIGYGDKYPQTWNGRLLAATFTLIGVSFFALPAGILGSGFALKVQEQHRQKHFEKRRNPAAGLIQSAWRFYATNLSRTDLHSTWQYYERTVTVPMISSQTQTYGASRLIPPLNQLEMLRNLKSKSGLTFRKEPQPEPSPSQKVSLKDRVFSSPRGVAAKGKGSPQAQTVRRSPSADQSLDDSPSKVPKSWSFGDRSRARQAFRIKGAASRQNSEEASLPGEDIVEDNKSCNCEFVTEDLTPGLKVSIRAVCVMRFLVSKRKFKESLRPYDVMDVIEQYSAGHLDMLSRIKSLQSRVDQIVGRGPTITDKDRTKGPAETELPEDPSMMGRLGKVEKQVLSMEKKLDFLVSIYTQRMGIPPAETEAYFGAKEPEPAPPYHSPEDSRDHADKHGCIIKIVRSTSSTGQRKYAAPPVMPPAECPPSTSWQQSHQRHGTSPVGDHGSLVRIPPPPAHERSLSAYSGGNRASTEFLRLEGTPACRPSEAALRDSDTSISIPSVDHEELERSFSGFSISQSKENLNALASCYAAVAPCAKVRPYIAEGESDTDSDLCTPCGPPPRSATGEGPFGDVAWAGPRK
KCNQ2 pot baseline: also measured in KCNQ2 pot; calls as there; B-score; compound at 10 µM; measured here: initial fluorescence intensity artifact check;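 brightness before thallium and not channel activity; 0 = typical well and far values either way flag optical interference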
Numbers without * were called inactive. A portion of the library, so the mix of outcomes need not match the whole.

structure | KCNQ2 pot | KCNQ2 pot baseline
Clc1nc(NC2CCCC2)nc(N2CCOCC2)n1 | 1.2 | 0.04
COc1cc(N)c(Cl)cc1C(=O)OCC(=O)Nc1cccnc1Cl | 0.8 | 2.3
CCNc1c(N)c(=O)oc2ccccc12 | 0.04 | 0.44
COc1cc(/C=N/Nc2ccc(F)cc2F)cc(OC)c1OC | 0.11 | -4.3
c1ccc(N2CCN(c3ncccn3)CC2)cc1 | 0.71 | 1.3
CC(C)C[C@H](NC(=O)N1CCn2c1nc1ccccc12)C(=O)NCC1CCCO1 (stereo partly drawn) | 0.06 | -0.04
COc1cc(C(=O)Nc2nc(-c3cc(C)ccc3C)c(C)s2)ccc1OCC(=O)Nc1ccc(F)cc1 | 2.3 | -0.02
CSc1nsc(SC)c1C(=O)O | 2.3 | -1.7
Cc1ccc(O)c(C(CC(=O)NCc2cccnc2)c2ccccc2)c1 (stereo not drawn) | 1.8 | -0.26
Cc1ccc(C)c(N2CCN(C(=O)Cn3ncc4c([nH]c5ccc(C)cc54)c3=O)CC2)c1 | 3 | -0.7
Cc1cccc(C(=O)Nc2nnc(S(=O)(=O)N3CCCCCC3)s2)c1 | 1.2 | -2.1
COC(=O)c1ccc(CNC(=O)CSc2nc3ccccc3[nH]2)cc1 | 2 | 0.05
CCC(=O)Oc1ccc(C(=O)Nc2c[nH]c(=O)[nH]c2=O)cc1 | 0.06 | -0.68
Cc1cc(C)n(-c2nc(C)nc3sc4c(c23)CCC(C)C4)n1 (stereo not drawn) | 1 | -1.9
Cc1ccc(S(=O)(=O)NC(CC(C)C)C(=O)N2CCOCCOCCOCC2)cc1 (stereo not drawn) | 0.61 | -1.1
COC(=O)C(C)(C(=O)OC)c1ccc(C(F)(F)F)cc1[N+](=O)[O-] | 0.02 | 0.55
O=C(Nc1ccc(F)cc1F)c1cccc(C(=O)Nc2ccc(F)cc2F)n1 | 0.76 | 1.7
Cn1cc(S(=O)(=O)N2CCN(C(=O)c3ccco3)CC2)c(=O)n(C)c1=O | 0.02 | 2.2
Cc1csc(NC(=O)C2CCCN(S(=O)(=O)c3ccc4c(c3)oc(=O)n4C)C2)n1 (stereo not drawn) | 0.24 | 0.38
CC(C)OC(=O)c1sc2nc(-c3ccccc3)ccc2c1N | 0.03 | -0.57
CN(C)c1ncnc2sc(-c3ccccc3)cc12 | 0.56 | -0.56
Nc1cc(C(F)(F)F)ccc1N1CCOCC1 | 1.9 | 0.32
CCOC(=O)N1CCN(C(=O)c2cc(OCC)c(OCC)c(OCC)c2)CC1 | 0.42 | 2.5
COC(=O)CSc1ccc(S(=O)(=O)N2CCCCCC2)cc1[N+](=O)[O-] | 0.73 | 0.76

Arranged by formula weight (lowest first): some entries from above
structure | KCNQ2 pot | KCNQ2 pot baseline
Cn1cc(S(=O)(=O)N2CCN(C(=O)c3ccco3)CC2)c(=O)n(C)c1=O | 0.02 | 2.2
COC(=O)CSc1ccc(S(=O)(=O)N2CCCCCC2)cc1[N+](=O)[O-] | 0.73 | 0.76
CCOC(=O)N1CCN(C(=O)c2cc(OCC)c(OCC)c(OCC)c2)CC1 | 0.42 | 2.5

(cont.)
structure | KCNQ2 pot | KCNQ2 pot baseline
Clc1ccccc1CSc1nncn1-c1cccnc1 | 3.3 | -1.5
Cc1cc(C(=O)NNC(=O)CCC2CCCCC2)c(C)o1 | 4.8 | 0
Cc1ccc2c(c1)N(CC(=O)N1CCCCC1C)C(=O)CO2 (stereo not drawn) | 1.1 | -0.63
CC(C)C(=O)N1CCC(n2nccc2NC(=O)CCc2ccccc2)CC1 | 1.3 | 0.19
O=S(=O)(/N=C/c1c(O)ccc2ccccc12)c1cccs1 | 5.8* | 0.6*
Cc1cc([N+](=O)[O-])cc2c1NC(=O)C2(O)N1CCOCC1 (stereo not drawn) | 3.2 | 0.09
CCOc1ccccc1CN1CCN(CCCc2ccccc2)CC1CCO (stereo not drawn) | 0.61 | -0.59
COc1ccc(CC(=O)N2N=C(C)CC2(O)c2cccnc2)cc1OC (stereo not drawn) | 0.24 | -1.1
COc1ccc(C(=O)NCCOc2cccc(OC)c2)cc1 | 0.01 | 0.29
Cc1cccc(-n2c(SC(C)C(=O)O)nc3sc4c(c3c2=O)CCCC4)c1 (stereo not drawn) | 1.1 | -1
Cc1ccc(C)c(NC(=S)NC(NC(=O)N(C)C)C(Cl)(Cl)Cl)c1 (stereo not drawn) | 1.9 | -1.5
COc1nccnc1NS(=O)(=O)c1ccc(N=Cc2c(C)[nH]n(-c3ccc(Cl)cc3)c2=O)cc1 | 0.83 | -0.82
O=C(CCNS(=O)(=O)c1ccccc1C(F)(F)F)N1CCN(S(=O)(=O)c2cccc(F)c2)CC1 | 2.4 | 0.2
CN1CCN(c2ccc(NC(=O)c3ccco3)cc2Cl)CC1 | 2 | 0.07
Cc1ccc(NC(=S)NC(NC(=O)c2ccco2)C(Cl)(Cl)Cl)cc1 (stereo not drawn) | 2.6 | -1.1
CCc1ccccc1NC(=O)CNC(=O)CCc1nc2sc3c(c2c(=O)[nH]1)CCCC3 | 0.14 | 0.87

6 entries drawn at random from those above, as already listed:
structure | KCNQ2 pot | KCNQ2 pot baseline
Cc1ccc(O)c(C(CC(=O)NCc2cccnc2)c2ccccc2)c1 (stereo not drawn) | 1.8 | -0.26
CN(C)c1ncnc2sc(-c3ccccc3)cc12 | 0.56 | -0.56
CCNc1c(N)c(=O)oc2ccccc12 | 0.04 | 0.44
O=S(=O)(/N=C/c1c(O)ccc2ccccc12)c1cccs1 | 5.8* | 0.6*
Cc1cc(C(=O)NNC(=O)CCC2CCCCC2)c(C)o1 | 4.8 | 0
COC(=O)C(C)(C(=O)OC)c1ccc(C(F)(F)F)cc1[N+](=O)[O-] | 0.02 | 0.55

(cont.)
structure | KCNQ2 pot | KCNQ2 pot baseline
COC(=O)C1=C(N)OC2=C(C(=O)CC(C)(C)C2)C1c1ccoc1 (stereo not drawn) | 0.73 | 0.75
CO/N=C\CC(=O)Nc1ccc(Cl)cc1Cl | 0.01 | -0.81
CCN1C(=NCc2cc(OC)c(OC)c(OC)c2)N[C@@H](c2ccccc2)[C@H](C(=O)OC)[C@H]1C | 2 | 1.2
COc1ccc(NC(=O)c2ccco2)cc1NC(=O)c1ccccc1 | 0.21 | -0.58
CCCCC1CCCC12NC(=O)NC2=O (stereo not drawn) | 0.01 | 0.01
Cc1cc(C)c(NC(=O)CNC(=O)COC(=O)C2=COCCO2)c(C)c1 | 0.83 | 1.5
NC(=O)c1ccc(NC(=O)c2ccc(CN3CCOCC3)cc2)cc1 | 0.91 | 0.61
CCN1CCCC1CNC(=O)Cn1cnc2ccc(S(=O)(=O)N3CCC(C)CC3)cc2c1=O (stereo not drawn) | 0.61 | -0.62
COc1ccc(-n2c(C)c(C(C)=O)c3cc(O)ccc32)cc1 | 0.45 | -0.24
O=C(C(Cl)Cl)N1CCN(c2ccccn2)CC1 | 0.02 | -1.8
COC(=O)c1cc(-c2ccc(OC)cc2)n[nH]1 | 0.46 | -0.04
CCCCOC(=O)Nc1cc(C(=O)OC)ccc1C(=O)OC | 1.3 | -0.43
Cc1ccc(-c2nnn(CC(=O)N3CCN(c4nc5ccccc5s4)CC3)n2)cc1 | 0.11 | -0.22
COc1cccc(N2CC(C(=O)Nc3c(C)cccc3C)CC2=O)c1 (stereo not drawn) | 0.53 | -0.83
O=C(O)c1ccc(OCc2ccc(C(=O)O)o2)cc1 | 1.2 | -0.46
CCC(C)[C@H](NC(=O)NCc1ccc(F)cc1)C(=O)O (stereo partly drawn) | 1.1 | 0.24
Nc1c(C(=O)c2ccccc2)oc2ccc([N+](=O)[O-])cc12 | 0.48 | -1.4
c1ccc(-c2ccccc2-n2cnnn2)cc1 | 0.52 | 0.51
O=C(O)c1ccccc1N/N=C/c1c(Sc2nnnn2-c2ccccc2)nc2ccccn2c1=O | 1.4 | 0.36
N#C/C=C1\Sc2ccccc2C(=O)N1CC(=O)N1CCN(S(=O)(=O)c2ccccc2)CC1 | 0.58 | 0.2
O=C(Cn1c2[n+](c3ccccc31)CC(O)CS2)c1ccccc1 (stereo not drawn) | 1.7 | -0.56
Cc1ccc(S(=O)(=O)NCc2ccccc2)cc1 | 0.65 | -0.74
C=CCNS(=O)(=O)c1ccc(OC)c(C)c1 | 0.32 | 0.67
CCc1nc2ccccc2n1CC(=O)Nc1cc(C)on1 | 0.69 | -0.53
CC(C)c1nc2cc(Cl)ccc2n(Cc2ccccc2)c1=O | 0.79 | -2.5
Cc1c(C(N)=O)sc2ncn(CC(=O)N(C)C3CCCCC3)c(=O)c12 | 0.49 | 0.66
COc1cc(Cl)c(C)cc1Nc1ncccn1 | 1.5 | 0.78
OCC1OC(n2cnc3ccccc32)CC1O (stereo not drawn) | 0.29 | 0.47
O=[N+]([O-])c1ccc(N/N=C/c2cn(-c3ccccc3)nc2-c2ccccc2)cc1 | 0.25 | 0.17
O=C1C2C(C(=O)N1Cc1ccco1)C1C=CC2C12CC2 (stereo not drawn) | 0.72 | -2.5
COC(=O)c1oc2ccccc2c1NC(=O)c1ccccc1O | 0.74 | 1.5
CC(=O)Nc1ccc(/C=N/N2CCCCC2)cc1 | 0.1 | 1.3
CC1CCCN(CC(O)COc2ccc(Cl)cc2)C1 (stereo not drawn) | 1.6 | 0.34
O=C(Nc1ccc2c(c1)OCO2)c1ccc2c(c1)OCO2 | 1.3 | 0.98
Cc1cc(Oc2ccc(Cl)cc2)nc(-c2ccccn2)n1 | 1 | -0.62
O=C(NCC1CCCO1)c1ccc(NC(=O)c2ccc([N+](=O)[O-])cc2)cc1 (stereo not drawn) | 0.46 | -1
O=C(CSc1n[nH]c(-c2ccncc2)n1)Nc1ccc(Cl)c(Cl)c1 | 0.1 | 2.4
OC[C@H]1O[C@@H](n2cnc3c(NC4CCCC4)ncnc32)[C@H](O)[C@@H]1O | 0.1 | -0.2
O=S(=O)(c1ccc(N2CCC(c3ccc(Cl)cc3)=N2)cc1)N(CCO)CCO | 1.8 | -0.45
Cc1cc(NCCN(C)C)n2nc(-c3cccs3)cc2n1 | 0.73 | -0.45
Cc1ccc(S(=O)(=O)O)c(C)c1N1CCCC1=O | 0.89 | 0.22
COc1ccc(OC)c(Nc2nc(N)c([N+](=O)[O-])c(N3CCOCC3)n2)c1 | 1.4 | -1.1
O=C1CSC(c2cccc([N+](=O)[O-])c2)N1CCN1CCCCC1 (stereo not drawn) | 0.67 | -0.13
CCCC(=O)N1CCc2cc(OC)c(OC)cc2C1c1cc2cc3c(cc2[nH]c1=O)OCO3 (stereo not drawn) | 1.9 | -1.7
Cc1cccc(NC(=O)c2cc3cc([N+](=O)[O-])ccc3s2)n1 | 0.08 | 0.68
Cc1cc(N2CCOCC2)n2nc(C)c(-c3ccccc3Cl)c2n1 | 1.1 | -1.1
COC(c1ccccc1)c1nnc(CCC(=O)N(C)C(C2CC2)C2CC2)o1 (stereo not drawn) | 0.07 | -0.22
CCCCN1C(=O)c2ccc(C(=O)NCc3ccco3)cc2C1=O | 0.06 | -1.1
Cc1ccc(-c2nn3c(C)nnc3s2)cc1NC(=O)c1cccnc1 | 0.07 | -2.5
CC1=CC(C)(C)Nc2ccc(OC(=O)CN3C(=O)c4cccc5cccc(c45)C3=O)cc21 | 0.23 | -0.87
Fc1ccccc1CCNc1c2c(nc3ncnn13)CCCC2 | 1.5 | 0.75
CNC(=O)/C(=N\O)c1ccccc1 | 0.35 | 1.9
COc1cc(C2C(C#N)=C(N)Oc3cc(C)oc(=O)c32)cc(OC)c1OC (stereo not drawn) | 1.2 | -2.2
COc1ccccc1-c1cc(C(=O)Nc2cc(C)n(Cc3ccc(Cl)cc3)n2)no1 | 0.01 | 0.34
CC1CN(C(=O)/C=C/c2cccc([N+](=O)[O-])c2)CC(C)O1 (stereo not drawn) | 0.91 | 0.67
O=C(/C=C/c1cccs1)Nc1cccc(NC(=O)/C=C/c2cccs2)n1 | 1.5 | -1.5

The listing continues:
structure | KCNQ2 pot | KCNQ2 pot baseline
Cc1cc(C(=O)CN2C(=O)NC(C)(CC(C)C)C2=O)c(C)n1-c1ccc2c(c1)OCO2 (stereo not drawn) | 0.17 | 0.42
Cc1cc(C)n(-c2ccc(Cl)c(C(=O)NCc3ccccc3)n2)n1 | 1.2 | -0.84
COc1cc(/C=N/n2nnnc2N)ccc1OCC(N)=O | 0.1 | -0.89
CCCc1nnc(NC(=O)CCC(=O)N2CCN(Cc3ccc(C)cc3C)CC2)s1 | 1.7 | -0.2
Cc1cc(C(N)=O)c2cc(Br)ccc2n1 | 0.18 | 1.2
Cc1c(NC(=S)NNC(=O)CCC(=O)O)c(=O)n(-c2ccccc2)n1C | 1.7 | -0.75
CCOC(=O)N1CCC(NCCNC(=O)c2ccc(Cl)cc2)CC1 | 1.4 | 0.03
CC(C)[C@H](NC(=O)[C@@H]1Cc2ccccc2CN1)C(=O)Nc1ccc2c(c1)OCO2 | 0.02 | -1.8
CCCCCc1ccc(C(=O)CCCC)c(=S)[nH]1 | 8* | -0.11*
O=S(=O)(c1ccc(F)c(F)c1)N1CCN(c2ccccn2)CC1 | 0.14 | -0.24
Cc1ccc(NC(=O)CSc2nncn2N)cc1C | 0.22 | -1.4
Cc1ccc(S(=O)(=O)NCC(c2ccccc2)N2CCN(c3ccc(F)cc3)CC2)cc1 (stereo not drawn) | 2.6 | 0.72
O=C(Nc1ccccc1)c1cccc(Cn2cc(C(F)(F)F)ccc2=O)c1 | 1.1 | -0.01
O=C(Oc1ccccc1)c1cccc(N2C(=O)CCC2=O)c1 | 0.87 | 0.08
O=S(=O)(c1ccc2ccccc2c1)N1CCc2ccccc21 | 0.29 | 1.8
COc1ccc(NC(=O)CSc2nn3c(=O)c(C)nnc3s2)cc1 | 1.1 | 1.4
CCCC12CN3CC(C)(CN(C1)C31CCCCC1)C2=O | 0.01 | 1.4
CCCn1c(Cc2ccccc2)nnc1SCC(=O)N1CCOCC1 | 0.6 | 0.67
OCCN1CCN(CCOc2ccccc2-c2ccccc2)CC1 | 0.21 | -1.2
Cc1cc(OC(C)C(=O)NC2CCN(Cc3ccccc3)CC2)c2c(C)cc(=O)oc2c1 (stereo not drawn) | 0.16 | -0.97
COc1ccc(NS(=O)(=O)c2ccc(C)c(C(=O)N(C)Cc3ccc(OC)cc3OC)c2)cc1 | 1.7 | -0.14
